Compound activity (PubChem BioAssay)
FGF22 binding = shifts melting point of recombinant human FGF22; 340,000 tested, 1.5% active; calls only at 9.99 µM; recombinant FGF22 thermal shift, SYPRO orange fluorescence; percent of sucrose octasulfate shift, DMSO zero;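 active = melting point raised past a set limit in the mean and every replicate; three in four hits are not shown here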
Target sequence (Q9HCT0 whole entry, looked up): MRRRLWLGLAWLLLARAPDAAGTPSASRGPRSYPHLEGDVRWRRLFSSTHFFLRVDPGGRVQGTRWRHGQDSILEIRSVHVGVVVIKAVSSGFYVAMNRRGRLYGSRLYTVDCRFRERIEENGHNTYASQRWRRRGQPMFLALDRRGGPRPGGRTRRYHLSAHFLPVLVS
AF4-AF9 inh = MLL-AF4/AF9 protein interaction inhibition; P42568; AlphaScreen, biotin-AF4 peptide binding to FLAG-AF9; inhibition, % at 10 µM; 350,000 tested, 0.47% active; AID 651704;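 active = every replicate reaching a set inhibition limit, whatever the replicate mean, cut at about 25% in these data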;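 note: 0% = plate neutral control median and 100% = total signal loss; the record names both 10 and 1 µM as test concentration; the first replicate is given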
Target sequence (P42568 whole entry, looked up): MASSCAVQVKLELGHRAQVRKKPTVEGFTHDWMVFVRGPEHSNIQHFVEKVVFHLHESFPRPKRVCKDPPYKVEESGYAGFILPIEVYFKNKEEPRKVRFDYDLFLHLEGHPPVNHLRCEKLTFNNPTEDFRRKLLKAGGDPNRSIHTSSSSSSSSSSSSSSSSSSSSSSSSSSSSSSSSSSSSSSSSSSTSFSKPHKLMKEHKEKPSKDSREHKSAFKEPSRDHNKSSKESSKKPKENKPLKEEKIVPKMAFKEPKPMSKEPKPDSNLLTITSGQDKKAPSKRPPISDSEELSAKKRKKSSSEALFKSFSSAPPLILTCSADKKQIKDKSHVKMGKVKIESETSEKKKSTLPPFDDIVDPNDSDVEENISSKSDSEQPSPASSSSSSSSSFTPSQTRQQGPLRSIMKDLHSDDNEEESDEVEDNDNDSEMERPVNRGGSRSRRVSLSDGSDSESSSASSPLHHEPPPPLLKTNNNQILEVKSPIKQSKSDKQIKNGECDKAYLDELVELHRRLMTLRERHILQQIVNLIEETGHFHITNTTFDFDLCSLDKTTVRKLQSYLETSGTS
Vif TR-FRET = HIV-1 Vif–A3G interaction blockers – biochemical, TR-FRET, GST-Vif 1-94, biotin-A3G peptide, dose response retest, primary screen (AID 1117319). 260,000 tested, 0.57% active. one-dose inhibition, %; IC50 in µM for titrated hits. TR-FRET GST-Vif / biotin-A3G peptide binding; higher % means a stronger effect; test concentration not given here; strong numbers were not always called active;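 active = above the screen mean plus three standard deviations and confirmed in dose response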;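 note: Vif residues 1-94 fused to GST binding biotinylated APOBEC3G peptide 110-148; 0% = full assay without inhibitor and 100% = GST in place of GST-Vif; retest series ran down from 100 µM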
rRNA inh HTS = inhibits bacterial ribosomal RNA function over humanized ribosomes; E. coli WT GFP vs humanized-ribosome RFP mutants, fluorescence, 24 h; stronger effect = lower value; DMSO median 0, no signal -100; GFP signal change (wild-type ribosome), % (test concentration not listed); 350,000 tested, 1.6% active;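 active = significant combined selectivity score with lowered wild-type GFP, culture density cut under 30%, mutant RFP and density less affected; inactive = any of these conditions unmet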; note: one replicate is shown; some compounds called inactive have numbers as strong as hits
ALR H2O2 inh = blocks human ALR sulfhydryl oxidase activity. P55789. purified ALR, DTT oxidation, H2O2 HRP-luminol luminescence. inhibition, % (concentration not given with the values). 290,000 tested, 3.8% active. AID 485317;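 active = mean and each replicate at 75% or more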;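 note: stock transfer was 7.5 nL into about 7.5 µL; 0% = neutral wells and 100% = wells with inactivated enzyme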
Target sequence (P55789 whole entry, looked up): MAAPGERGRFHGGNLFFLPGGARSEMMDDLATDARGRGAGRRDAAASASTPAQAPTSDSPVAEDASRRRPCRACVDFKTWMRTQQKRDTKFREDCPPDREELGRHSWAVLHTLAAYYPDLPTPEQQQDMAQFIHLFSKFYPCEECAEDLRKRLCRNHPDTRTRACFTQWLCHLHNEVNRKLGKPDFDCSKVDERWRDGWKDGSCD
HNF4A DNA FP = change in binding of human HNF4 alpha to DNA; P41235; HNF4a-FITC DNA binding, fluorescence polarization, 1 h; activity change, % at 10 µM; 360,000 tested, 0.3% active; AID 1224865; in the data active = activity change above about 30%, passing the limit was not always enough;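 note: controls were the assay level and a saturating level of protein; the project sought stronger binding though the title names inhibitors; some compounds called inactive have numbers as strong as hits; positive values seem to mean higher polarization but the record does not say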
Ecoli growth = blocks Escherichia coli growth | OD600 absorbance (test concentration not listed) | OD600, 23 h; stronger effect = lower value | 330,000 tested, 0.21% active;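 active = OD600 absorbance below the run mean of sample wells minus 3.6 SD, in any replicate, cut at about 0.56 in these data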;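 note: stock transfer was 300 nL into about 60 µL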
rRNA inh HTS OD600 = also measured in rRNA inh HTS; calls as there; OD600 change, %; measured here: OD600 growth;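 optical density of the mix in the first replicate; 0 = DMSO median and -100 = no signal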
rRNA inh HTS RFP = also measured in rRNA inh HTS; calls as there; RFP signal change, %; measured here: RFP humanized mutant strains;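 first replicate; 0 = DMSO median and -100 = no signal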
Numbers without * were called inactive. This is a subset; rates above refer to the full screens.

COC(=O)c1c(-c2ccccc2)[nH]c(-c2nccc3ccccc23)c1C(=O)OC was read as FGF22 binding inactive, AF4-AF9 inh 1.3, Vif TR-FRET 2%, rRNA inh HTS -9, HNF4A DNA FP -0.8, rRNA inh HTS OD600 -5 and rRNA inh HTS RFP 4.4.
For CO[C@H]1CN(C)C(=O)c2cc(NS(C)(=O)=O)ccc2OC[C@H](C)N(Cc2ccccc2)C[C@@H]1C the results were FGF22 binding inactive, AF4-AF9 inh -1.6, rRNA inh HTS -3, rRNA inh HTS OD600 -7 and rRNA inh HTS RFP 1.5.
`CCCCCC[n+]1c(-c2ccccc2)csc1Nc1ccccc1` gave FGF22 binding inactive, AF4-AF9 inh 0.2, rRNA inh HTS 4, ALR H2O2 inh -2, HNF4A DNA FP 3.1, Ecoli growth 0.7, rRNA inh HTS OD600 8 and rRNA inh HTS RFP -2.5.
For COc1ccc(CCNS(=O)(=O)c2ccc(OC)c(OC)c2)cc1OC the results were FGF22 binding inactive, AF4-AF9 inh -2.5, Vif TR-FRET 28%, rRNA inh HTS 4, ALR H2O2 inh -14, HNF4A DNA FP -3.0, Ecoli growth 0.67, rRNA inh HTS OD600 9 and rRNA inh HTS RFP 0.3.
`Cc1ccc(S(=O)(=O)CCC(=O)Nc2nnc(-c3ccccc3S(C)(=O)=O)o2)cc1` gave FGF22 binding inactive, AF4-AF9 inh -3.3, Vif TR-FRET 0%, rRNA inh HTS 1, ALR H2O2 inh 7, HNF4A DNA FP 0.4, Ecoli growth 0.7, rRNA inh HTS OD600 -5 and rRNA inh HTS RFP 2.3.
For CC1CCc2nc(NC(=O)CN3CCN(c4ccc(F)cc4)CC3)sc2C1 (configuration not stated) the results were Vif TR-FRET -2%, ALR H2O2 inh 11, HNF4A DNA FP -3.2 and Ecoli growth 0.65.
`CCOC(=O)Cc1[nH]nc2c1C(c1cc(OC)ccc1OC)C(C#N)=C(N)O2` (configuration not stated) gave FGF22 binding inactive, AF4-AF9 inh 1.0, Vif TR-FRET 15%, rRNA inh HTS 14, ALR H2O2 inh 32, HNF4A DNA FP -1.2, Ecoli growth 0.72, rRNA inh HTS OD600 12 and rRNA inh HTS RFP -4.1.
For O=C(NN=C1C2CC3CC(C2)CC1C3)c1ccncc1 the results were Vif TR-FRET -7%, ALR H2O2 inh 42, HNF4A DNA FP -0.7 and Ecoli growth 0.67.
For O=[N+]([O-])c1ccccc1OCCCN1CCc2ccccc2C1 the results were FGF22 binding inactive, AF4-AF9 inh 3.8, rRNA inh HTS -2, ALR H2O2 inh -1, HNF4A DNA FP 0.3, Ecoli growth 0.68, rRNA inh HTS OD600 -4 and rRNA inh HTS RFP -1.3.
`CC(=O)c1ccc(NC(=O)CNCC(c2ccccc2)N(C)C)cc1` (configuration not stated) gave FGF22 binding inactive, AF4-AF9 inh 6.9, Vif TR-FRET 1%, rRNA inh HTS 15, ALR H2O2 inh -8, HNF4A DNA FP 4.1, Ecoli growth 0.66, rRNA inh HTS OD600 -6 and rRNA inh HTS RFP 1.3.
CC1(C(=O)NS(=O)(=O)c2ccc(Br)cc2)CCN1C(=O)C1(c2ccccc2)CC1 (configuration not stated) was read as FGF22 binding inactive, AF4-AF9 inh -2.3, rRNA inh HTS -7, HNF4A DNA FP 5.5, rRNA inh HTS OD600 -1 and rRNA inh HTS RFP -2.5.
Screening NC(=O)c1ncn([C@@H]2O[C@H](CNCc3ccccc3OCc3ccc(Cl)cc3Cl)[C@@H](O)[C@H]2O)n1 returned FGF22 binding inactive, AF4-AF9 inh 3.1, rRNA inh HTS 3, HNF4A DNA FP -0.4, rRNA inh HTS OD600 -1 and rRNA inh HTS RFP 1.1.
Screening CCCCc1nnc(NC(=O)CCc2ccccc2)s1 returned FGF22 binding inactive, AF4-AF9 inh -1.6, rRNA inh HTS 12, ALR H2O2 inh 6, HNF4A DNA FP 0.2, Ecoli growth 0.69, rRNA inh HTS OD600 5 and rRNA inh HTS RFP 3.0.
For C[C@@H]1CN([C@H](C)CO)C(=O)Cc2cc(NC(=O)NC3CCCCC3)ccc2O[C@H]1CN(C)CC1CC1 the results were FGF22 binding inactive, AF4-AF9 inh 1.4, rRNA inh HTS 2, rRNA inh HTS OD600 3 and rRNA inh HTS RFP -1.7.
For COc1ccc(S(=O)(=O)Nc2ccccc2C(=O)NCc2cccnc2)cc1 the results were FGF22 binding inactive, AF4-AF9 inh 0.9, rRNA inh HTS 6, HNF4A DNA FP 0.6, Ecoli growth 0.68, rRNA inh HTS OD600 -1 and rRNA inh HTS RFP 4.4.
`CC(C)NC(=O)N(C)C[C@@H]1Oc2ncc(-c3ccc(C(=O)N(C)C)cc3)cc2C(=O)N([C@H](C)CO)C[C@@H]1C` gave FGF22 binding inactive, AF4-AF9 inh -1.3, rRNA inh HTS 2, rRNA inh HTS OD600 12 and rRNA inh HTS RFP -2.0.
O=C(c1cccc(NC2=NC3CS(=O)(=O)CC3S2)c1)N1CCN(c2cccc(Cl)c2)CC1 (configuration not stated) was read as FGF22 binding inactive, AF4-AF9 inh 7.5, rRNA inh HTS 0, ALR H2O2 inh -1, HNF4A DNA FP -0.4, Ecoli growth 0.79, rRNA inh HTS OD600 -9 and rRNA inh HTS RFP -4.3.
`CSc1nnc(C)c(/C=C/Nc2ccc(F)cc2)n1` gave Vif TR-FRET 22%, ALR H2O2 inh -29, HNF4A DNA FP 17 and Ecoli growth 0.74.
For COc1ccc(C(=O)Nc2ccc(OCC(F)(F)C(F)F)c(C(F)(F)F)c2)cc1OC the results were Vif TR-FRET 4%, ALR H2O2 inh 0, HNF4A DNA FP -0.6 and Ecoli growth 0.72.
CCOC(=O)c1ccc2ncc(C(=O)OCC)c(NCc3ccco3)c2c1 was read as Vif TR-FRET 6%, HNF4A DNA FP -1.3 and Ecoli growth 0.77.
Screening Cc1cc(C)cc(NS(=O)(=O)c2ccc3[nH]cc(C(=O)N4CCc5ccccc54)c(=O)c3c2)c1 returned ALR H2O2 inh -4, HNF4A DNA FP -0.7 and Ecoli growth 0.72.
For Cc1ccc2nc(-c3ccc(N4C(=N)SC5CS(=O)(=O)CC54)cc3)sc2c1 (configuration not stated) the results were Vif TR-FRET 8%, HNF4A DNA FP 4.1 and Ecoli growth 0.7.
`CO[C@@H]1CN(C)C(=O)c2cc(NS(=O)(=O)c3cn(C)cn3)ccc2OC[C@@H](C)N(CC2CC2)C[C@H]1C` gave FGF22 binding inactive, AF4-AF9 inh -3.7, rRNA inh HTS -1, rRNA inh HTS OD600 6 and rRNA inh HTS RFP 0.8.
Screening O=c1[nH]c2cc(Cl)ccc2c(O)c1-c1cccc(Oc2ccccc2)c1 returned FGF22 binding inactive, AF4-AF9 inh -1.7, ALR H2O2 inh -1, HNF4A DNA FP 2.7 and Ecoli growth 0.72.

Retrieved one by one from the entries so far:
Screening O=c1[nH]c2cc(Cl)ccc2c(O)c1-c1cccc(Oc2ccccc2)c1 returned FGF22 binding inactive, AF4-AF9 inh -1.7, ALR H2O2 inh -1, HNF4A DNA FP 2.7 and Ecoli growth 0.72.
Screening Cc1cc(C)cc(NS(=O)(=O)c2ccc3[nH]cc(C(=O)N4CCc5ccccc54)c(=O)c3c2)c1 returned ALR H2O2 inh -4, HNF4A DNA FP -0.7 and Ecoli growth 0.72.
For C[C@@H]1CN([C@H](C)CO)C(=O)Cc2cc(NC(=O)NC3CCCCC3)ccc2O[C@H]1CN(C)CC1CC1 the results were FGF22 binding inactive, AF4-AF9 inh 1.4, rRNA inh HTS 2, rRNA inh HTS OD600 3 and rRNA inh HTS RFP -1.7.

Continuation.
`CCc1nnc(NS(=O)(=O)c2ccc(N=Cc3c(C)[nH]n(-c4ccc(C)c(C)c4)c3=O)cc2)s1` gave Vif TR-FRET -1%, ALR H2O2 inh 21 and HNF4A DNA FP 2.8.
COc1ccccc1CCn1cnc(-c2ccc(F)cc2F)c1CC(C)C was read as FGF22 binding inactive, AF4-AF9 inh 0.0, rRNA inh HTS -54, rRNA inh HTS OD600 -76 and rRNA inh HTS RFP -11.
COCC(=O)Nc1ccc2c(c1)OC[C@H](C)N(Cc1ccccc1F)C[C@@H](C)[C@H](OC)CN(C)C2=O was read as FGF22 binding inactive, AF4-AF9 inh 2.9, rRNA inh HTS -6, rRNA inh HTS OD600 -11 and rRNA inh HTS RFP 2.2.
O=C(c1cc2ccccc2oc1=O)N(Cc1cccs1)C1CCS(=O)(=O)C1 (configuration not stated) was read as Vif TR-FRET -3%, ALR H2O2 inh -16, HNF4A DNA FP -0.7 and Ecoli growth 0.68.
CO[C@@H]1CN(C)C(=O)c2ccc(NS(=O)(=O)c3ccccc3)cc2OC[C@@H](C)N(Cc2cccnc2)C[C@H]1C was read as FGF22 binding inactive, AF4-AF9 inh 0.7, rRNA inh HTS -3, rRNA inh HTS OD600 -2 and rRNA inh HTS RFP 4.2.
`CCOC(=O)C1CCN(C(=O)CCc2nnc3ccc(N4CCN(C)CC4)nn23)CC1` gave FGF22 binding inactive, AF4-AF9 inh -2.3, rRNA inh HTS 11, ALR H2O2 inh -12, HNF4A DNA FP -1.4, Ecoli growth 0.69, rRNA inh HTS OD600 -3 and rRNA inh HTS RFP 0.8.
CCOc1cc(/C=N/NC(=O)c2ccncc2)ccc1OC(=O)c1ccc([N+](=O)[O-])cc1 was read as Vif TR-FRET 9%, ALR H2O2 inh 19 and HNF4A DNA FP -0.9.
`COc1ccc(NC(=O)CCOc2cc(C)ccc2C)cc1S(=O)(=O)N1CCCCC1` gave FGF22 binding inactive, AF4-AF9 inh 1.5, Vif TR-FRET 3%, rRNA inh HTS -3, HNF4A DNA FP -4.5, Ecoli growth 0.73, rRNA inh HTS OD600 -10 and rRNA inh HTS RFP 5.5.
`O=C(COc1ccc(Br)cc1)Nc1ccc(N2CCOCC2)cc1N1CCOCC1` gave FGF22 binding inactive, AF4-AF9 inh -3.5, HNF4A DNA FP 3.1 and Ecoli growth 0.75.
Screening CCOc1ccc(C(=O)C(C)=O)c(OCC)c1 returned FGF22 binding inactive, AF4-AF9 inh -10, Vif TR-FRET 11%, rRNA inh HTS 8, ALR H2O2 inh -2, HNF4A DNA FP 1.6, Ecoli growth 0.75, rRNA inh HTS OD600 7 and rRNA inh HTS RFP 0.9.
C=CCn1c(=O)/c(=C\c2ccsc2)s/c1=C(/C#N)C(=O)NCCN1CCOCC1 was read as Vif TR-FRET -1%, ALR H2O2 inh -18 and HNF4A DNA FP 0.0.
Screening C=CCNC(=O)CSc1nc2scc(-c3ccco3)c2c(=O)n1CC=C returned FGF22 binding inactive, AF4-AF9 inh -3.7, Vif TR-FRET 17%, rRNA inh HTS 12, ALR H2O2 inh -1, HNF4A DNA FP -3.3, Ecoli growth 0.69, rRNA inh HTS OD600 -3 and rRNA inh HTS RFP 0.7.
O=C(C[C@@H]1CC[C@H](NS(=O)(=O)c2ccc(F)cc2)[C@H](CO)O1)NCc1ccc(Cl)c(Cl)c1 was read as FGF22 binding inactive, AF4-AF9 inh 0.1, rRNA inh HTS -8, rRNA inh HTS OD600 -28 and rRNA inh HTS RFP 4.4.
Screening CCOC(=O)N1CCN(C(=O)CS(=O)(=O)Cc2nc(-c3ccccc3C)oc2C)CC1 returned FGF22 binding inactive, AF4-AF9 inh -16, Vif TR-FRET 1%, rRNA inh HTS -2, ALR H2O2 inh -5, HNF4A DNA FP -4.3, Ecoli growth 0.71, rRNA inh HTS OD600 -17 and rRNA inh HTS RFP 1.1.
